# NPYLR7 ag – activates Aedes aegypti NPYLR7 receptor; AID 1259423; activation, % at 10 µM; HEK293T NPYLR7/Galpha15, GCaMP6s calcium fluorescence; 270,000 compounds, 0.15% hits; in the data active means activation above about 40%;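 further: 0% = vehicle and 100% = reference agonist at the receptor; some compounds past the cut are filed as inactive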
# NPYLR7 ag max-min – second read-out of NPYLR7 ag, no call of its own (marks repeat the call); activation, %; measured here: Max-Min RFU normalised activation; some inactives read as strong as hits;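 span of the calcium signal over five minutes; 0% = vehicle and 100% = native peptide agonist; compound fluorescence can raise it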
# The depositor's hits bear a star; & = joins results of further samples.
Structure	NPYLR7 ag	NPYLR7 ag max-min
CC(C)c1[nH]n(-c2ccc(Cl)cc2)c(=O)c1C1=C([n+]2ccccc2)C(=O)N(C2CCCCC2)C1=O	-3	3
Cc1cccnc1NCCNC(C)C(=O)NC1CCCC1 (stereo not drawn)	12	8
CCCSc1nc(NCCOC)c2cnn(CCNC(=O)c3cccs3)c2n1	2	0
COc1ccc(OCc2nc(CSc3cc(OC)ccc3OC)cs2)cc1	24	25
CC1CCC(NC(=O)c2ccc(OCc3cccnc3)cc2)CC1 (stereo not drawn)	1	0
Cc1cc(O)c(C(c2cccc(Cl)c2)N2CCN(C)CC2)c(=O)n1Cc1cccnc1 (stereo not drawn)	8	0
Cc1cccc(N(CCCN2C(=O)c3cccc4cccc(c34)C2=O)C(=O)c2cccs2)c1	-1	-7
N#Cc1ccc(COc2ncc([N+](=O)[O-])cc2C#N)cc1	0	21
Cc1c(Br)c(C(F)(F)F)nn1CC(=O)NC(C)C1CC2CCC1C2 (stereo not drawn)	-1	-8
CC1(C(=O)NS(=O)(=O)c2ccc(C#N)cc2)CCN1C(=O)CC1CC1 (stereo not drawn)	4	4
NC(=O)NC(=O)COC(=O)c1ccc2ccccc2c1	3	0
Cc1ccc(S(=O)(=O)N2CCN(C(=O)Cn3nnc(-c4ccc(C(C)C)cc4)n3)CC2)cc1	-4	8
Cc1nc2c(OCC3CCCCO3)cccn2c1N(C)Cc1cccs1 (stereo not drawn)	11	8
CCc1nc(C)sc1CNC(=O)CSCc1ccccc1Cl	13	0
CN(C)C(C)(C)CNC(=O)C1=NN(Cc2ccc(F)cc2)C(=O)CC1	0	-2
Cc1c(NC(=O)c2cc(-c3cccs3)nc3c2cnn3C(C)C)cccc1[N+](=O)[O-]	5	5
CCC(C)(NCC(=O)N(c1ccccc1)C(C)C)c1nc(C)cs1 (stereo not drawn)	6	3
CCN(Cc1ccc2c(c1)OCO2)C(=O)CN1C(=O)NC2(CCOc3ccccc32)C1=O (stereo not drawn)	-8	-5
NC1CC(=O)N(CCc2cccc(Cl)c2)C1 (stereo not drawn)	5	1
O=C(c1cc(C2CC2)[nH]n1)N1CCN(Cc2ccccc2CO)CC1	9	7
Cc1cnc(CNC(=O)c2cc(C3CC3)[nH]n2)cn1	6	5
CC(C)CNC(=O)c1csc(CN(CC(C)C)C(=O)C(Cl)c2ccccc2)n1 (stereo not drawn)	10	8
CC(NC(=O)/C=C/c1cnccn1)c1cccc(N2CCCC2=O)c1 (stereo not drawn)	1	-1
COc1ccc(OC)c(C2SC(C)C(=O)N2CC2CCN(C(=O)c3ccc(F)cc3)CC2)c1 (stereo not drawn)	6	11
COc1ccccc1C(=O)N1CCN(C(C(=O)NCc2ccc(F)cc2)C2CCCC2)CC1 (stereo not drawn)	-8	6
O=C(NCc1cnc2c(c1)CCC2)c1cnnn1-c1ccccc1	10	-10
Cc1nc2cc(C(=O)N3CCCC(CO)(Cc4ccccc4)C3)ccc2n1-c1ccccc1 (stereo not drawn)	7&12	2&12
CN1CCc2c(sc3c2C(=O)NC(/C=C/c2ccco2)N3)C1 (stereo not drawn)	15	3
O=C(O)c1ccccc1CN1CCCC(c2ccc(Cl)cc2)C1 (stereo not drawn)	4	0
Cc1ccc(OC2CCN(C(=O)C3CCC(=O)N(CCN4CCOCC4)C3)CC2)cc1 (stereo not drawn)	10	5
O=C(O)c1c(F)ccc(OC(F)F)c1F	-6	116
Cc1ccc(NC(=O)C2CCN(C(=O)NC(C)C)CC2)c(Br)c1	2	-1
CCCC(=O)N1CCC(N2CCC(c3ccncc3)CC2)CC1	6	4
Cc1nc2cc(Cl)ccc2cc1C(=O)NC(C)C	13&2	7&0
COc1ccc(C(=O)COC(=O)c2cc(OC)c(O)c(OC)c2)cc1	-5	-4
Cc1cc(Cl)ccc1N1C(=O)/C(=C\c2ccc(S(C)(=O)=O)cc2)N(C)C1=S	23	26
CN1CCN(C(=O)c2nn3c(C(F)(F)F)cc(-c4cccs4)nc3c2Cl)CC1	-3	3
COc1ccc(C2=NN(C(=O)C34CC5CC(CC(C5)C3)C4)C(c3ccc(OC)cc3)C2)cc1 (stereo not drawn)	-9	-13
COCC(=O)N1CCC(n2nccc2NC(=O)c2ccccc2OC)CC1	-1	-2
CN(C)S(=O)(=O)NCc1nnnn1-c1ccc(Cl)cc1	1	-1
Cc1cc(C)n(CC(C)Nc2ncc(C)c(N(C)C)n2)n1 (stereo not drawn)	3	4
O=C(NCc1cccnc1)c1coc(CN(Cc2cccc(Cl)c2)Cc2cccc(C(F)(F)F)c2)n1	20	10
CCN(C)c1nc(-c2ccccc2)nc2c1CN(C(=O)Nc1ccccc1Br)CC2	19	23
COc1ccc(C(CC(=O)NCCc2ccc(Cl)cc2Cl)c2cn(C)c3ccccc23)cc1OC (stereo not drawn)	-2	5
N#Cc1ccc(NC(=O)N2CCC3(CC2)C(=O)N(CC(=O)NCC2CCCO2)CN3c2ccccc2)cc1 (stereo not drawn)	-1	3
Cc1ccc(N2CCN(C(=O)c3ccc(Cl)cc3Cl)C(C)C2=O)cc1Cl (stereo not drawn)	5	5
CNc1ccnc(-c2ccc(O)cc2)n1	-3	-4
COc1ccccc1CC(=O)N1CCC(n2nccc2NC(=O)c2ccccc2C)CC1	6	0
COc1cc(C)c([C@@H]2C[C@H](NC(C)=O)C[C@H](Cc3ccccc3)O2)cc1C	2	-4
CC1CCN(c2ccc(NC(=O)C3CCC3)cc2C(=O)NCCc2ccccc2)CC1	18	27

# Random excerpt: 2 entries already listed.
Structure	NPYLR7 ag	NPYLR7 ag max-min
COc1ccc(C(CC(=O)NCCc2ccc(Cl)cc2Cl)c2cn(C)c3ccccc23)cc1OC (stereo not drawn)	-2	5
Cc1ccc(NC(=O)C2CCN(C(=O)NC(C)C)CC2)c(Br)c1	2	-1

# Next part:
Structure	NPYLR7 ag	NPYLR7 ag max-min
CCOC(=O)c1ccc(NC(=O)CSc2nnc(NC(=O)c3ccco3)s2)cc1	7	12
CC(=O)Oc1c(-c2ccc(N)cc2)c(-c2ccc3c(c2)OCO3)nn1-c1cccc(C)c1	4	3
CC[C@@H]1Cc2cc(O)ccc2C2=C1c1ccc(O)cc1C[C@H]2CC	-2	-20
Cc1ccc(-c2noc(CSc3nnc(-c4ccco4)n3C)n2)cc1	1	-1
COc1ccc(/C=C2/NC(=S)NC2=O)cc1O	0	-6
C=CCn1c(SCc2ccc(Cl)c(Cl)c2)nnc1-c1ccccc1F	15	25
CC1CN(c2ccc(NC(=O)C3CCCN(C(=O)C(C)(C)C)C3)cn2)CC(C)O1 (stereo not drawn)	12	11
Cc1ncc(CNC(=O)N2CCC(C(C)C)CC2)s1	2	0
CCC(O)CN(CCOC)Cc1cccn1Cc1ccc(F)cc1 (stereo not drawn)	-4	3
Cc1cnc(NC(C)Cc2cccnc2)nc1N(C)C (stereo not drawn)	6	5
CNc1ncccc1C(=O)N(C)Cc1[nH]c2ccccc2c1C	28	14
CC(=O)c1ccc(NC(=O)CSc2nc(-c3ccccc3)nc3c2c(=O)n(C)c(=O)n3C)cc1	8	11
COc1cc(CCNC(=O)CC(C)C)c([N+](=O)[O-])cc1OC	-5	-7
COc1ccc(-c2cccc(-n3cncc3C(=O)NCC3COC(C)(C)O3)c2)cc1OC (stereo not drawn)	15	25
CCNC(=O)[C@@H]1C[C@@H](N)CN1C(=O)c1ccc(-n2ccnc2)cc1	22	11
CC(=O)N1CCCc2cc(S(=O)(=O)Nc3ccc(S(=O)(=O)NC4CC4)cc3)ccc21	3	5
O=C1c2cccc([N+](=O)[O-])c2C(=O)c2cccc([N+](=O)[O-])c21	-8	-11
COc1cc2c(cc1OC)-c1nnc(-c3ccco3)n1C1(CCCC1)C2	0	-3
CC(C)C(=O)Nc1ccc(N(C)C)c(CN(C(C)C)S(C)(=O)=O)c1	-4	7
CSCc1c(C(=O)N2CCC(C(N)=O)CC2)oc2ccccc12	8	4
COCCCNC(=O)c1cc(-c2cccc(OC)c2)nc2cc(C(C)(C)C)nn12	11	14
CC(C)c1cc(C(=O)Nc2ccnn2Cc2cccc(Cl)c2)on1	1	2
CCc1ncc(C(=O)N(Cc2cccnc2)Cc2cccnc2)cn1	1	32
CCc1cccc2c(C(CC(=O)NCc3ccc4c(c3)OCO4)c3cccc(OC)c3OC)c[nH]c12 (stereo not drawn)	4	8
COc1ccc(OC)c(C=NNC(=O)C(F)(F)C2(F)OC(F)(F)C(F)(F)C2(F)F)c1 (stereo not drawn)	-1	-1
O=C(CCCn1nc(-c2ccc(F)cc2)ccc1=O)Nc1ccccc1C(F)(F)F	5	4
CCOC(=O)C1CCN(C(=O)c2ccc(CSc3nc(N(C)CCc4ccc(OC)c(OC)c4)cc(C(C)(C)C)n3)o2)CC1	-5	-1
O=C(/C=C/c1ccccc1)Oc1coc(CSc2ncccn2)cc1=O	-18	-13
Cc1ccccc1C(=O)NC1CCN(c2cc(C(F)(F)F)ccn2)CC1	4	2
COCC(=O)NC1CCN(c2ccccc2C(=O)NCCc2ccccc2)CC1	1	11
COCCCN(CC(=O)N(Cc1cccn1Cc1cccc(OC)c1)C(C)(C)C)C(=O)c1cccc(Br)c1	5	3
Cc1noc(C)c1S(=O)(=O)N(Cc1ccc2c(c1)OCO2)C1CCCC1	6	11
Cc1noc(C)c1C(C)C(=O)N1CCC(NC(=O)c2ccccc2)CC1 (stereo not drawn)	1	-3
O=C(c1cc2ccccc2s1)N1CCN(S(=O)(=O)c2ccc(Cl)s2)CC1	4	3
CC1CCN(c2ccc(NC(=O)C3CC3c3ccccc3)cc2C(=O)NCc2ccc(F)cc2)CC1 (stereo not drawn)	1	5
CN(CCCc1cnn(C)c1)C(=O)c1cnn2ccn(C)c12	2	0
O=C(COC(=O)c1ccc(F)cc1)c1ccc(Cl)cc1	-7	-11
Cn1nc([N+](=O)[O-])nc1Oc1ccccc1N	-3	-5
CCCc1nc(C)c(CNC2CCN(C(=O)c3ccccc3)CC2)s1	4	0
COC(=O)c1c(NC(=O)c2c(-c3ccccc3)noc2C)sc2c1CCC2	0	-3
CC(C)(C)OC(=O)NC1CCN(C(=O)c2ccc(-n3nc(-c4ccc(Cl)c(Cl)c4)cc3N)cc2)C1 (stereo not drawn)	2	-3

# Ordered by length of the SMILES (high to low): 20 of the compounds above.
Structure	NPYLR7 ag	NPYLR7 ag max-min
CCOC(=O)C1CCN(C(=O)c2ccc(CSc3nc(N(C)CCc4ccc(OC)c(OC)c4)cc(C(C)(C)C)n3)o2)CC1	-5	-1
CC(C)(C)OC(=O)NC1CCN(C(=O)c2ccc(-n3nc(-c4ccc(Cl)c(Cl)c4)cc3N)cc2)C1 (stereo not drawn)	2	-3
COCCCN(CC(=O)N(Cc1cccn1Cc1cccc(OC)c1)C(C)(C)C)C(=O)c1cccc(Br)c1	5	3
CCc1cccc2c(C(CC(=O)NCc3ccc4c(c3)OCO4)c3cccc(OC)c3OC)c[nH]c12 (stereo not drawn)	4	8
COc1ccc(OC)c(C=NNC(=O)C(F)(F)C2(F)OC(F)(F)C(F)(F)C2(F)F)c1 (stereo not drawn)	-1	-1
CC(=O)N1CCCc2cc(S(=O)(=O)Nc3ccc(S(=O)(=O)NC4CC4)cc3)ccc21	3	5
O=C1c2cccc([N+](=O)[O-])c2C(=O)c2cccc([N+](=O)[O-])c21	-8	-11
COCCCNC(=O)c1cc(-c2cccc(OC)c2)nc2cc(C(C)(C)C)nn12	11	14
O=C(c1cc2ccccc2s1)N1CCN(S(=O)(=O)c2ccc(Cl)s2)CC1	4	3
CC(C)C(=O)Nc1ccc(N(C)C)c(CN(C(C)C)S(C)(=O)=O)c1	-4	7
COC(=O)c1c(NC(=O)c2c(-c3ccccc3)noc2C)sc2c1CCC2	0	-3
COc1cc2c(cc1OC)-c1nnc(-c3ccco3)n1C1(CCCC1)C2	0	-3
Cc1ccccc1C(=O)NC1CCN(c2cc(C(F)(F)F)ccn2)CC1	4	2
O=C(/C=C/c1ccccc1)Oc1coc(CSc2ncccn2)cc1=O	-18	-13
CCCc1nc(C)c(CNC2CCN(C(=O)c3ccccc3)CC2)s1	4	0
CSCc1c(C(=O)N2CCC(C(N)=O)CC2)oc2ccccc12	8	4
CCc1ncc(C(=O)N(Cc2cccnc2)Cc2cccnc2)cn1	1	32
CN(CCCc1cnn(C)c1)C(=O)c1cnn2ccn(C)c12	2	0
O=C(COC(=O)c1ccc(F)cc1)c1ccc(Cl)cc1	-7	-11
Cn1nc([N+](=O)[O-])nc1Oc1ccccc1N	-3	-5

# Screening results (PubChem)

# Only part of the results is shown; rates above refer to the full screens.
